# Sfp PPTase inh: inhibitors of Bacillus subtilis Sfp phosphopantetheinyl transferase; Q9F4F7; Biochemical Sfp PPTase activity, qHTS; Potency, µM, inactives show max response, negative = inhibition, hits mostly inhibitors; 310,000 compounds, 3.5% hits; AID 1490; active = well fitted inhibition curve with a large enough effect; inconclusive = small, poorly fitted or top-dose-only effect, or another doubt; inactive = no such curve, though single readings can be large or run the other way;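 note: the enzyme is Sfp with the accession as filed and its product quenches rhodamine fluorescence; potency is the fitted concentration of half-maximal effect; 0% = enzyme reaction without inhibitor and -100% = no enzyme wells; top concentration of the series not given in the record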
#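 Fluorescence-quenching assay: 15 nM Sfp-PPTase preincubated 15 min at room temperature with compound, then 5 uM rhodamine-CoA and 12.5 uM BHQ-2-labelled YbbR peptide added. Fluorescence (ex 525/em 598 nm) read at start and after 30 min; difference gives rate.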
# D2 ag: activates the human D2 dopamine receptor; P14416; DiscoveRx PathHunter D2 beta-arrestin, luminescence, 90 min; 100% = 57 uM dopamine signal; activation, % (concentration not given with the values); 360,000 compounds, 0.084% hits; in the data active = activation above about 40%; inconclusive = about 15% to 40%; inactive = below about 15%; note: the text of the record calls up to 30% inactive
# Target sequence (P14416 whole entry, looked up): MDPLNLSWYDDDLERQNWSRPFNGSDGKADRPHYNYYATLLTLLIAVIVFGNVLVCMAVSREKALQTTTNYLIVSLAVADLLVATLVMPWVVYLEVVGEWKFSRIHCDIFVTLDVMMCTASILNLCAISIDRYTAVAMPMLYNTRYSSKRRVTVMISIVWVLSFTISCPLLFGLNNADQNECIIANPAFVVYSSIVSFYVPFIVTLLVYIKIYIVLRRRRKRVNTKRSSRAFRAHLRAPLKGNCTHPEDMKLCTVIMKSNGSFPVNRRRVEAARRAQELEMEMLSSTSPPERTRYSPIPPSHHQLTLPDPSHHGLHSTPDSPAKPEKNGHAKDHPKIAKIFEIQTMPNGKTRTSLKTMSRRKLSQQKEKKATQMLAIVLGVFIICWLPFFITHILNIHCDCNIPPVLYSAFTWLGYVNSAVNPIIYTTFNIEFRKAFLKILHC
#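 Agonist mode: compounds alone added to overnight-plated D2 PathHunter cells for 90 min at 37 C, with 57 uM final dopamine (EC100) defining full response. Beta-arrestin recruitment detected by chemiluminescent reagent, read after 1 h at ambient temperature.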
# ClpP mod: qHTS Assay for Activators of ClpP; ATP-dependent Clp protease proteolytic subunit (Bacillus subtilis (strain 168)), P80244; purified B. subtilis ClpP, FRET peptide cleavage, 20 min; Potency, µM (highest dose often 57.5 µM), for the others: at the top dose activity change, negative = active; 340,000 compounds, 1.9% hits; AID 651965, 2013; active = well fitted falling curve with a large enough effect; inconclusive = small, poorly fitted or top-dose-only effect; inactive = no such curve, though single readings can be large or run the other way; note: potency is the fitted concentration of half-maximal effect; the source files actives as falling curves though it sought activators and does not explain the sign; nearly all actives have a fitted effect of over 65% in size; many hits overshoot -100%
# Target sequence (P80244 whole entry, looked up): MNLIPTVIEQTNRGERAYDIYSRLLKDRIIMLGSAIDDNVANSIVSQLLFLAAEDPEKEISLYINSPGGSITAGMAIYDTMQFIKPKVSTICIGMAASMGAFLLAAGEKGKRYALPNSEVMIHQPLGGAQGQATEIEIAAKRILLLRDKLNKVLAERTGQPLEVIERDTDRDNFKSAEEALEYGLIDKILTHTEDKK
#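 Purified B. subtilis ClpP, 10 microg/mL final in Tris/HCl pH8 with KCl, BSA, glycerol and Tween-20, cleaved an Abz/nitrotyrosine-quenched decapeptide. Fluorescence (ex 320, em 430) was read at 0 and 20 min at room temperature. Delta was normalized to 5.8 microM ADEP and DMSO/no-enzyme controls.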
# gsp agonist: agonists of gsp mutant (McCune-Albright syndrome) | 340,000 compounds, 0.13% hits | gsp mutant cells, cAMP HTRF, 30 min; control for the full effect not named in the record | AID 624287 | Potency, µM (doses to about 76.9 µM), without a hit: at the top dose activation (cAMP increase), hits mostly activators; active = well fitted activation curve with a large enough effect; inconclusive = small, poorly fitted or top-dose-only effect, or another doubt; inactive = no such curve, though single readings can be large or run the other way; cell line not stated here;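 note: phosphodiesterase inhibitor Ro 20-1724 added with compounds to block cAMP breakdown; potency is the fitted concentration of half-maximal effect; nearly all actives have a fitted effect of over 60% in size; about a fifth of the inactives were tested at one dose only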
#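 Cells in DMEM/10% FBS with G418 were pretreated with compounds in DMSO plus […] (300 uM stock) for 30 min at 37C. cAMP was measured by HTRF (cAMP-d2 plus anti-cAMP antibody-K) after 30 min at room temperature.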
# PINK1 expr mod: changes PINK1 expression | 410,000 compounds, 0.2% hits | Potency, µM (doses to about 76.6 µM), without a hit: at the highest dose activation (PINK1 increase), most hits filed as activators | PINK1 immunofluorescence, high-content cytometry, 24 h; active = well fitted activation curve with a large enough effect; inconclusive = small, poorly fitted or top-dose-only effect; inactive = flat fitted curve, though single readings scatter; cell line not stated here;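 note: potency is the fitted concentration of half-maximal effect; % of control where 0% means no effect; nearly all actives have a fitted effect of over 65% in size; a mitochondrial uncoupler was the plate control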
#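 A stable cell line was treated with compounds at 5 concentrations for 24 hours, with CCCP as control. PINK1 levels and mitochondrial localization were measured by immunofluorescence with mitochondrial, cell and nuclear markers after fixation, read by laser-scanning cytometry.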
# Menin-MLL FL inh: inhibitors of human menin-MLL interaction, wild-type MLL peptide; 290,000 tested, under 10 active; Fluorescence polarization, fluorescein-MLL peptide displacement from menin; FP activity change, % at 61.4 µM; inconclusive = falling polarisation curve, or a change in total fluorescence; inactive = total fluorescence flat and polarisation flat or rising; no compound was filed as active; the % refers to the polarisation; negative = inhibition;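 note: % of control where 0% means no effect; inhibitors lower the polarisation; unlabelled MLL peptide was the positive control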
# gsp antag: antagonizes gsp, the McCune-Albright syndrome mutation | gsp-mutant cells, cAMP HTRF, 30 min; control for the full effect not named in the record | Potency, µM (doses to about 76.9 µM), for the others: at the highest dose activity change, negative = inhibition, hits mostly inhibitors | AID 624288 | 340,000 compounds, 0.4% hits; active = falling curve of any shape with a large fitted effect; inconclusive = falling curve, mostly with a smaller effect; inactive = flat or rising curve; cell line not stated here;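 note: intracellular cAMP measured with PDE inhibitor Ro 20-1724 present during compound exposure; potency is the fitted concentration of half-maximal effect; % is set by controls: 0 for no effect and ±100 for the full control effect; nearly all actives have a fitted effect of over 65% in size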
#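 Measurement of cellular cAMP by homogeneous time-resolved fluorescence following a 30 min compound exposure at 37C. The PDE inhibitor […] was present throughout; the assay buffer was DPBS with 0.05% BSA and 0.005% Tween 20.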
# Numbers without * were called inactive; u = inconclusive; x = not tested or not shown; [ ] = dose if it differs, or a comment.
SMILES,Sfp PPTase inh,D2 ag,ClpP mod,gsp agonist,PINK1 expr mod,Menin-MLL FL inh,gsp antag
COc1ccc(-c2nnc(NC(=O)c3cc(C)on3)s2)cc1,-3.1%,-2.0,-5.2%,7.2%,-1.3%[38.3 µM],-0.6,-28.8%
O=C(Oc1ccccc1C(=O)Oc1ccccc1)c1cccnc1,15.3%,-0.8,1.1%,u,4.4%,-2.2,11.7%
O=C(CN(C(=O)C1CSC(=O)C1)c1ccc(F)cc1)NCc1ccc2c(c1)OCO2 (stereo not drawn),14.5%,-2.9,-2.0%,8.2%[15.4 µM],2.0%,1.2,-4.6%
Cc1ccc(N/C(SCc2ccccc2C)=C(/C#N)C(=O)NCc2ccco2)cc1C,11.4%,-3.9,-3.1%,23.4%,u,2.7,u
Cn1cc2ccc([N+](=O)[O-])cc2n1,5.8%,-4.5,0.0%,-6.3%,-0.1%,-1.7,5.2%
CCc1cc(C(=O)c2ccc(OC)cc2)c(N)s1,-16.1%,0.7,x,-4.8%[15.4 µM],1.4%,6.5,0.4%
CC(C)(C)OC(=O)N1CCC(c2c(C(=O)O)cnn2-c2ccccc2Cl)CC1,22.8%,-1.9,-2.1%,3.5%,0.7%[38.3 µM],-1.7,-6.9%
O=C(CCC(=O)N(CC(=O)NC1CCCC1)Cc1ccccc1)Nc1nccs1,-0.6%,-2.9,x,10.7%,-1.0%,0.5,-1.4%
Cc1ccoc1C(=O)Nc1cccc2ccccc12,11.8%,-4.4,-4.1%,-26.4%,-0.9%,2.3,1.6%
O=C(CCN1C(=O)c2ccccc2C1=O)OCn1nnc2ccccc2c1=O,-5.0%,-2.9,-0.4%,15.9%,1.6%,-1.3,-7.6%
CCOc1ccc(CNC(=S)NCc2ccc(OCC)cc2)cc1,-6.9%,2.9,x,-3.5%[15.4 µM],3.5%,3.1,-14.1%
CCCCN(C(=O)CCC(=O)Nc1cc(C)on1)C(C(=O)NC1CCCC1)c1ccc(F)cc1 (stereo not drawn),7.1%,-1.4,x,u,0.3%,-3.3,2.4%
N#C/C(=N\Nc1ccc(Cl)cc1)C(=O)c1ccsc1,7.6%,-4.9,x,-1.4%[15.4 µM],u,-1.3,u
CC(C)=CCC/C(C)=C/CNC(=O)C[C@H]1C[C@H](C(=O)N2CCCCC2)[C@@]2(CCc3ccccc3)c3[nH]c4cc(CCC(=O)N(C)C)ccc4c3CCN2C1=O,x,1.2,0.8%,x,0.9%,x,-1.0%
CC1=C(C(=O)Nc2ccccc2)C(c2cccs2)n2nnnc2N1 (stereo not drawn),0.8%,-1.6,-1.8%,1.7%,29.4%[38.3 µM],-0.5,-0.4%
COc1ccc(CC(=O)OCC(=O)Nc2ccc3[nH]c(=O)[nH]c3c2)cc1OC,x,0.8,-0.4%,-75.7%[inhibitor],-1.0%,x,x
CCOC(=O)C1=C(C)Nc2ccccc2N=C1NC(=O)C(CC)c1ccccc1 (stereo not drawn),1.2%,-2.1,-0.2%,-20.7%,-0.8%,4.7,5.8%
CCOC(=O)N1CCN(C(=O)CC(=O)Nc2ccc3nc4n(c(=O)c3c2)CCCCC4)CC1,-13.0%,0.8,-15.7%,-23.8%,1.3%,-0.1,5.3%
COc1ccccc1CN1CCCC2(CCN(C(=O)c3cccn3C)CC2)C1,-4.7%,x,x,x,0.5%,-1.8,x
Cn1c(SCC(=O)Nc2ccc3c(c2)OCCO3)nnc1-c1cccnc1,x,1.1,-2.5%,-0.1%,-0.6%,x,7.3%
COc1cccc(-c2cc(C(=O)Nc3c(C)n(C)n(-c4ccccc4)c3=O)no2)c1,10.5%,-3.5,-2.6%,1.4%,0.4%,3.9,2.5%
O=C(Nc1ccccc1)c1nc[nH]c1C(=O)NCCCCNC(=O)c1[nH]cnc1C(=O)Nc1ccccc1,x,-0.7,-2.2%,-12.6%,-0.3%,x,-11.9%
COc1ccccc1/C=N/Nc1cc(N(C)C)nc(N(C)C)n1,-8.1%,0.8,x,21.6%[15.4 µM],1.4%,1.1,-22.8%
c1ccc(-n2cnc3cc(NCc4cccs4)ccc32)cc1,-19.7%,2.6,u,-2.7%,21.4%[38.3 µM],5.2,-4.7%
O=[N+]([O-])c1cccc(C2CC(c3ccccc3)=NN2c2ccccc2)c1 (stereo not drawn),1.2%,-1.9,-5.9%,-16.9%[15.4 µM],4.1%,-1.2,-11.8%
SMILES,Sfp PPTase inh,D2 ag,ClpP mod,gsp agonist,PINK1 expr mod,Menin-MLL FL inh,gsp antag
Cc1ccc(S(=O)(=O)N2CCCN(c3nc4cc(C)ccc4cc3C#N)CC2)cc1,8.9%,0.4,u,-24.6%,u,1.7,-9.5%
O=C(NC1CCCc2ccccc21)c1ccc(Br)cc1 (stereo not drawn),7.2%,-2.3,-2.6%,-11.6%,10.4%,0.7,-8.1%
NC(=O)CNC1CC(=O)N(CCc2ccccc2)C1=O (stereo not drawn),2.0%,-1.3,1.3%,-3.4%,5.2%[38.3 µM],-3.0,12.9%
CC(=O)c1ccc(OCCCC(=O)Nc2cccc(S(=O)(=O)N(C)C)c2)cc1,6.7%,0.7,-2.8%,5.8%,1.4%,8.0,-24.1%
CNS(=O)(=O)c1ccc(NC(=O)c2ccc(Cl)cc2Cl)cc1,7.6%,-0.1,1.0%,-17.5%,1.1%,-0.4,20.8%
CCN(CC)c1ccc2oc(=O)c(C)nc2c1,14.1µM*,7.4,-0.5%,0.6%,-3.4%[38.3 µM],u,14.5%
N#Cc1ccccc1NC(=O)C1SC(=Nc2ccccc2)C(C(=O)Nc2ccc(Cl)cc2)=C1N (stereo not drawn),-8.3%,-4.1,0.3%,15.2%[15.4 µM],u,1.4,-45.4%
COc1ccc(CC(=O)OCC(=O)NC2CCCC(C)C2C)cc1OC (stereo not drawn),x,3.3,1.4%,0.2%,-2.7%,x,11.5%
COc1ccc(CNC(=O)C2(CC(=O)NC(C)(C)C)CCCC2)cc1,15.1%,-4.0,0.7%,u,-1.7%,1.3,16.9%
CCOC(=O)c1c(NC(=O)CSc2nnc(C)o2)sc(C)c1C,-25.7%,-4.9,0.7%,-10.4%,0.0%,0.8,-4.7%
O=C(NCCc1ccco1)C(=O)NCCC1CCCCN1S(=O)(=O)c1ccccc1 (stereo not drawn),x,-2.2,-11.7%,-3.0%[15.4 µM],3.8%,x,-10.4%
CCOC(=O)CN1C(=O)S/C(=C\c2ccc(-c3ccc(C(=O)O)c(Cl)c3)o2)C1=O,50.1µM*,-4.4,-25.8%,6.2%,-0.1%,u,u
CC1(C)OC(=O)C2=C(C[C@@H](CCC(F)(F)F)O[C@H]2c2ccc(F)cc2)O1,x,-4.1,1.7%,x,1.3%,x,x
Cc1ccc(S(=O)(=O)NN=C2CCN(Cc3ccccc3)CC2)cc1,3.1%,-3.0,0.7%,-1.3%,-0.1%,4.8,7.9%
CCO[C@H]1OC(C(=O)N2CCN(C)CC2)=C[C@@H](c2csc3ccccc23)[C@@H]1CCCO,9.5%,-0.7,1.7%,x,2.2%,-3.8,5.6%
CCOCC(=O)Nc1cccc(OC)c1,4.3%,0.6,-2.3%,-24.0%,-0.7%,2.9,3.5%
CNS(=O)(=O)c1c(C)cc(C)c(N(C)S(=O)(=O)c2ccccc2)c1C,-7.5%,3.5,x,17.3%,3.9%,6.6,-0.8%
Cc1ccc(C(=O)NCc2ccco2)cc1S(=O)(=O)N1CCCCC1,-23.0%,-1.0,-0.8%,-3.3%,x,-2.7,-4.1%
COc1cccc(NC(=O)N2CCCC2)c1,17.4%,5.5,0.9%,3.5%,0.7%,3.2,5.6%
CCN(CC(=O)Nc1c(F)cccc1F)C(=O)/C=C/c1ccc(C)o1,x,-3.7,x,-4.0%[15.4 µM],-3.9%,x,1.5%
CCOc1nc(NC(=O)NS(=O)(=O)c2ccccc2F)nc(-c2ccccc2)n1,-2.2%,-3.5,x,2.3%[15.4 µM],1.5%,2.9,2.9%
Cc1cc(NC(=O)CSCC(=O)Nc2nc3c(C)cccc3s2)no1,x,-0.7,-2.6%,-20.9%,u,x,-9.7%
O=C(CN1CCN(c2ccccc2O)CC1)Nc1ccc2c(c1)OCCCO2,x,2.9,-1.6%,-29.2%,-0.3%,x,-6.0%
COC(=O)c1ccc(/C=C2/SC(=S)N(CCC(=O)NCCCN3CCOCC3)C2=O)cc1,-2.4%,-0.7,x,-6.5%[15.4 µM],6.2%,x,13.5%
COCC(=O)Nc1cc(=O)n(C)c(=O)n1C,-2.7%,-3.1,0.6%,u,0.2%,1.2,12.3%
SMILES,Sfp PPTase inh,D2 ag,ClpP mod,gsp agonist,PINK1 expr mod,Menin-MLL FL inh,gsp antag
O=S(=O)(NCCSc1ccccn1)c1ccc(Br)cc1,-4.1%,-2.6,x,2.3%[15.4 µM],0.5%,4.2,9.7%
Cc1ccc(S(=O)(=O)CCc2nnc(NC(=O)c3cccs3)s2)cc1,12.4%,-0.2,0.7%,-0.2%[15.4 µM],-1.1%,4.0,-2.0%
COc1ccc(-c2nc(CS(=O)(=O)CC(=O)NCCCN3CCOCC3)c(C)o2)cc1,11.8%,0.5,0.0%,u,0.5%,x,22.2%
CCCC(=O)N1CCN(c2ccc(NC(=O)c3ccc4c(c3)OCCO4)cc2)CC1,7.2%,-5.0,-2.7%,-3.5%[15.4 µM],13.2%,0.4,1.0%
COc1ccc(NC(=O)NN2CCN(C)CC2)cc1,7.2%,-2.3,0.4%,12.2%,0.4%,4.4,0.3%
O=C(Nc1cccc(NC(=S)NC(=O)c2cccs2)c1)c1ccccc1,-19.2%,-2.1,-3.7%,-16.2%,10.2%,1.5,10.8%
COc1cc2[nH]c(=O)n(CCCCCC(=O)NCCCN3CCC(C)CC3)c(=O)c2cc1OC,7.5%,-3.7,15.8µM*,-5.6%,7.7%[38.3 µM],1.0,5.4%
C=CCN(Cc1cc(OC)ccc1OC)S(=O)(=O)N(C)C,18.8%,-2.7,-1.8%,2.7%,-0.6%,1.1,0.4%
COC(=O)c1cc(S(=O)(=O)n2nc(C)c(Br)c2C)c(Cl)cc1Cl,-4.5%,-2.0,0.3%,-11.5%,-2.0%,2.6,u
CCN(CC(=O)NCc1cccs1)C(=O)c1cccc(S(=O)(=O)Nc2ccccc2OC)c1,10.0%,2.1,0.9%,0.3%,1.4%,x,-1.4%

# Assay outcomes (PubChem BioAssay)

# Compounds as they come; 5.1% or so of the library scored in one or more.
